Cruzain noTriton – qHTS Assay for Promiscuous and Specific Inhibitors of Cruzain (without detergent) | Cruzipain (Trypanosoma cruzi), P25779 | purified cruzain, Z-FR-AMC fluorescence, no detergent | Potency, µM, inactives show max response, negative = inhibition, hits mostly inhibitors | 2.3% of 200,000 active | AID 1476, 2009;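 also: plate controls were enzyme without inhibitor for no effect and buffer without enzyme for full effect; nearly all actives have a fitted effect of over 40% in size; top concentration of the series not given in the record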
Target sequence (P25779 123-467 limits assumed): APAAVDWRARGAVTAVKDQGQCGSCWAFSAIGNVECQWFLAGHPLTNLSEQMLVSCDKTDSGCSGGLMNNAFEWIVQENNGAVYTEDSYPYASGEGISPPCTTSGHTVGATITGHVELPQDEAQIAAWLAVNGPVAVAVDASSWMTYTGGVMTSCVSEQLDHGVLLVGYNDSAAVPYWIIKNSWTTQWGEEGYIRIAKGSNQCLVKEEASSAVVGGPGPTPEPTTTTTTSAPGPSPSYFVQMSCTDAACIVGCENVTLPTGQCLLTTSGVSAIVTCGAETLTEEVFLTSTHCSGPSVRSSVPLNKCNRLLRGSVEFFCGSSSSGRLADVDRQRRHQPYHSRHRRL
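Detergent-free condition (0.00005% Triton X-100) in acetate buffer pH 5.5 with DTT. 1.5 nM enzyme and compound were pre-mixed 15 min, then 2 uM Z-FR-AMC substrate added; reaction progress from fluorescence change between first and third reads (60 s).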
LASV entry inh – qHTS for Inhibitors of binding or entry into cells for Lassa Virus | Potency, µM (highest dose often 37.9 µM), without a hit: at the top dose activity change, negative = inhibition, most hits filed as inhibitors | AID 540256, 2011 | 1.2% of 300,000 active | Lassa virus pseudotype entry inhibition, cell reporter; control for the full effect not named in the record; active means well fitted inhibition curve with a large enough effect; inconclusive means small, poorly fitted or top-dose-only effect, or effect the other way; inactive means flat fitted curve, though single readings scatter; tested in HEK293 cells; also: % is scaled to controls: 0 for no effect and ±100 for the full control effect; nearly all actives have a fitted effect of over 50% in size; luciferase read-out
Cruzain inh Det – qHTS Assay for Promiscuous and Specific Inhibitors of Cruzain (with detergent); purified cruzain, Z-FR-AMC fluorescence, 0.01% Triton; AID 1478, 2009; Potency, µM, for inactives: max response, negative = inhibition, most hits filed as inhibitors; 0.43% of 200,000 active; Cruzipain (Trypanosoma cruzi), P25779;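 also: plate controls were neutral wells for no effect and buffer without enzyme for full effect; nearly all actives have a fitted effect of over 40% in size; top concentration of the series not given in the record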
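15 min RT preincubation of 1.5 nM cruzain with compound, then 2 uM Z-FR-AMC added; kinetic AMC fluorescence, 60 s delta. Triton X-100 0.01%, pH 5.5.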
NS1 inh – qHTS Assay for Inhibitors of Influenza NS1 Protein Function | Potency, µM (top dose mostly 46.1 µM), inactives show top-dose activity, positive = more growth | S. cerevisiae slowed by influenza A NS1, growth recovery by OD600 | 0.4% of 270,000 active; active means well fitted rising curve with a large enough effect; inconclusive means small, poorly fitted or top-dose-only effect; inactive means no such curve, though single readings can be large or run the other way; also: nearly all actives have a fitted effect of over 50% in size
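Recovery from NS1-induced slow growth read by OD600 in budding yeast switched to galactose assay medium (pH 6.0, -URA) at 1:100 dilution. Compound 23 nl per well; the matching strain lacking NS1 serves as control.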
SARS PLP yeast – qHTS of Yeast-based Assay for SARS-CoV PLP. Potency, µM (series often up to 32.9 µM), for inactives: at the highest dose activity, positive = growth rescue. 0.19% of 330,000 active. S. cerevisiae expressing SARS-CoV PLpro, growth rescue; control for the full effect not named in the record; active means well fitted rising curve with a large enough effect; inconclusive means small, poorly fitted or top-dose-only effect; inactive means no such curve, though single readings can be large or run the other way; also: 0% is about no effect; nearly all actives have a fitted effect of over 55% in size; growth read by luminescence after 48 h
StopGo reporter – High Throughput Screening for Foot and Mouth Disease Virus Antivirals; human cells with a luciferase reporter of 2A StopGo recoding; control for the full effect not named in the record; Potency, µM (doses to about 57.9 µM), inactives show at the top dose signal change, negative = less light; 1.2% of 410,000 active; AID 1159524, 2015; active = well fitted falling curve with a large enough effect; inconclusive = small, poorly fitted or top-dose-only effect; inactive = no such curve, though single readings can be large or run the other way; tested in HEK293T cells; also: % is scaled to controls: 0 for no effect and ±100 for the full control effect; nearly all actives have a fitted effect of over 45% in size; luciferase light after 4 h
MARV entry inh – qHTS for inhibitors of binding or entry into cells for Marburg Virus; AID 540276, 2011; Potency, µM (doses to about 37.8 µM), without a hit: at the top dose activity change, negative = inhibition, actives largely listed as inhibitors; Marburg virus pseudotyped entry inhibition, cell reporter; control for the full effect not named in the record; about a third of the inactives were read at about 46 µM; 1.8% of 300,000 active; active = well fitted inhibition curve with a large enough effect; inconclusive = small, poorly fitted or top-dose-only effect, or effect the other way; inactive = flat fitted curve, though single readings scatter; tested in HEK293 cells; about a fifth of its hits are not listed in these tables; also: % is scaled to controls: 0 for no effect and ±100 for the full control effect; luciferase read-out
RE007 growth inh – qHTS Assay for Inhibitors of the HIV-1 protein Vpr. S. pombe RE007 Vpr strain, BacTiter-Glo ATP luminescence, 24 h; control for the full effect not named in the record. Potency, µM (series often up to 92.2 µM), inactives show at the top dose activity change, negative = less growth. 0.21% of 360,000 active. AID 651644, 2012; active = well fitted falling curve with a large enough effect; inconclusive = small, poorly fitted or top-dose-only effect; inactive = no such curve, though single readings can be large or run the other way;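 also: % is scaled to controls: 0 for no effect and ±100 for the full control effect; nearly all actives have a fitted effect of over 50% in size; the assay follows cell death caused by Vpr and the record does not say whether a fall means rescue or toxicity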
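Fission yeast strain RE007, carrying one chromosomally integrated HIV-1 vpr copy, was seeded at OD 0.01 in PMG+AL medium with 23 nL pinned compound. After 24 h at 30 °C and 99% humidity, viability was read by BacTiter-Glo luminescence.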
Starred values were filed as active, the others as inactive; u = inconclusive; x = no result given; [ ] = another dose, or the depositor's remark. Unless noted, calls follow the shape of the dose curve; as a rule, active = well fitted curve in the direction sought with a large enough effect; inconclusive = small, poorly fitted or top-dose-only effect, or another doubt; inactive = no such curve, though single readings can be large; an effect the other way counts as inactive or inconclusive. Potency is read from the fitted curve at half-maximal effect.

SMILES	Cruzain noTriton	LASV entry inh	Cruzain inh Det	NS1 inh	SARS PLP yeast	StopGo reporter	MARV entry inh	RE007 growth inh
COc1ccc(OCCSc2ncnc3nc[nH]c23)cc1	-9%	x	0.7%	-55%	-9%	-10%	x	-2%
Cc1ccc(/C=C/C(=O)c2ccc(C)cc2)cc1	0%	27%	-7.3%	-16%	-21%	56%[activator]	19%	1%
CCN(CC)S(=O)(=O)c1ccc(C)c(NC(=O)CN2CCN(C)CC2)c1	x	x	x	4%	0%	-15%	x	-5%
CN(C=O)c1cc([N+](=O)[O-])ccc1OCc1ccccc1	x	-7%[46.1 µM]	x	x	x	5%	4%	-4%
CN(C)Cc1ccccc1C(O)(c1ccccc1)c1ccccc1	x	u	x	3%	-2%	-28%	u	5%
Cc1ccn(CCC(=O)N2CCCC(CCC(=O)NCc3ccc(F)c(F)c3)C2)n1 (centres undefined)	x	-15%[46.1 µM]	x	-5%	3%	11%	2%[46.1 µM]	9%
NS(=O)(=O)c1ccc(NC(=O)c2ccc(OCC3CCCO3)cc2)cc1 (centres undefined)	x	3%[46.1 µM]	x	x	4%	-11%	u	-17%
CCN(CC)CCCNC(=O)CNC(=O)c1nn(-c2ccc(OC)c(OC)c2)c(=O)c2ccccc12	x	2%	x	3%	5%	8%	9%	15%
COc1ccc(NC(=O)c2ccc3[nH]c(C)cc(=O)c3c2)cc1	-13%	-2%[46.1 µM]	-2.1%	x	x	5%	21%[46.1 µM]	x
CCOc1ccc(-c2cc(C(=O)O)c3ccccc3n2)c(OCC)c1	-4%	u	-4.9%	-6%	21%	0%	u	-4%
CC(=O)N1CCCc2cc(S(=O)(=O)Nc3cccc(C)c3C)ccc21	x	u	x	x	24%	15%	u	11%
CCOc1ccccc1N1C(=O)CC(Sc2ncccc2C(=O)O)C1=O (centres undefined)	-3%	0%	2.8%	1%	-4%	x	u	-13%
CCOC(=O)N1CCC(N(CCN(C)C)C(=S)Nc2cc(Cl)cc(Cl)c2)CC1	x	-24%[46.1 µM]	x	x	0%	-12%	18%[46.1 µM]	10%
O=C(C1CCCN(Cc2ccccc2C(F)(F)F)C1)N1CCCCC1 (centres undefined)	-2%	-10%	0.6%	0%	4%	-28%	-24%	13%
CC(=O)c1c(C)nc(C)nc1NC(=O)C(C)C	-6%	-6%	5.9%	-2%	11%	5%	u	-11%
O=C(O)COc1ccccc1/C=N/Nc1ccc(S(=O)(=O)N2CCOCC2)cc1[N+](=O)[O-]	x	5%[46.1 µM]	x	x	0%	-13%	-3%[46.1 µM]	2%
NCCCP(=O)(O)O	6%	-9%	4.7%	3%	x	x	u	x
CCN(C(=O)CSc1nnc(-c2ccc(C)cc2)n1N)c1c(N)n(Cc2ccccc2)c(=O)[nH]c1=O	x	0%	x	x	5%	2%	2%	3%
COc1ccccc1-c1nc2cc(Cl)ccc2c(=O)n1O	x	2%[46.1 µM]	x	-3%	2%	-6%	18%[46.1 µM]	1%
Cn1c(NC(=O)c2ccc(S(=O)(=O)N3CCOCC3)cc2)cc(=O)n(C)c1=O	5%	4%	1.3%	0%	12%	-18%	-6%	4%
Cc1cc(OC(=O)c2cc(Br)ccc2Cl)c([N+](=O)[O-])c(=O)[nH]1	x	x	x	-7%	-1%	-9%	x	1%
Cc1ccc(NC(=O)CSc2nc3ccc(NC(=O)CCc4ccccc4)cc3s2)cc1	4%	1%[46.1 µM]	-1.1%	x	x	-13%	-3%[46.1 µM]	x
N/C(=N\OC(=O)c1ccccc1Cl)c1cccnc1	-16%	u	1.1%	-6%	-5%	-36%	u	20µM*
CC(=O)c1cc2c(cc1NS(=O)(=O)c1ccccc1)OCO2	2%	17%	-0.5%	9%	-1%	14%	-9%	0%
O=C1CC2(CCN(C(=O)c3ccccc3F)CC2)Oc2ccccc21	x	u	x	x	-2%	-19%	-1%[46.1 µM]	3%
CC(=O)NS(=O)(=O)c1ccc(NS(=O)(=O)c2ccc3ccccc3c2)cc1	x	-1%[46.1 µM]	x	1%	1%	-3%	1%[46.1 µM]	5%
COC(=O)c1c(NC(=O)CN2CCN(C(=O)c3ccco3)CC2)c2cc(C)ccc2n1C	29%	-9%	-2.1%	-31%	1%	-4%	-29%	7%
O=C(CCCc1nc(-c2ccc(Cl)cc2)no1)NCC1CCCO1 (centres undefined)	x	u	x	-4%	-2%	u	u	5%
CNc1nc(SC)nc2ccccc12	x	-5%	x	-7%	0%	-1%	3%[46.1 µM]	-17%
CSCC(C)N1CCC(n2nccc2NC(=O)CCOc2ccccc2)CC1 (centres undefined)	x	x	x	3%	1%	-8%	x	1%
COc1ccc(S(=O)(=O)NCC(c2cccnc2)N2CCN(c3ccc(F)cc3)CC2)cc1C (centres undefined)	15%	u	-5.3%	-82%	-35%	-14%	u	28%
COc1ccc(S(=O)(=O)Nc2cc(C)ccn2)cc1OC	9%	-1%	5.1%	6%	5%	x	20%	-3%
Nc1ccc(C(=O)OCC(=O)NC2CCCc3ccccc32)cc1[N+](=O)[O-] (centres undefined)	-1%	21%	7.2%	2%	4%	-16%	6%	-15%
CCOC(=O)C1(C)NC(c2ccco2)C2C(=O)N(CC)C(=O)C21 (centres undefined)	x	x	x	4%	3%	5%	x	-12%
COCCSc1nnc(NC(=O)Cc2ccccc2OC)s1	-14%	2%	0.4%	-3%	5%	10%	5%	-6%
CC(=O)Nc1ccc(NC(=O)C(C)N(C)CC(=O)Nc2ccccc2Br)cc1 (centres undefined)	x	-2%[46.1 µM]	x	-3%	0%	-21%	6%[46.1 µM]	11%
CCOC(=O)N1CCN(C(=O)c2ccc3c(SCC(=O)O)c4c(nc3c2)CCCC4)CC1	25%	-15%	-6.5%	8%	8%	-4%	-7%	6%
CC(=O)OCCOc1nc(N(C)C)nc(N(C)C)n1	7%	-6%	2.0%	-6%	6%	13%	6%	-6%
CCOCCCNC(=O)c1cccs1	15%	19%	1.5%	-2%	2%	13%	4%	2%
O=C1CCC(=O)N1c1ccccc1OS(=O)(=O)c1ccccc1	x	6%	x	8%	0%	-9%	u	-3%
Cc1c(Cc2ccc3c(c2)OCO3)sc(NC(=O)c2ccccc2)c1C(N)=O	25µM*	3%	-2.7%	u	13%	-11%	28%	9%
C/C(=N/NC(=O)c1cccc(N2CCCC2=O)c1)c1ccc(Br)cc1	x	13%[46.1 µM]	x	20%	1%	5%	21%[46.1 µM]	1%
Cc1cc(Oc2ccc(=O)[nH]n2)nc(Cl)n1	x	x	x	-1%	1%	-1%	x	4%
CCOc1ccccc1NC(=O)c1ccc2c(Cl)c3c(nc2c1)CCC3	-5%	19%[46.1 µM]	-1.0%	x	x	29%	u	x
NC(=S)N/N=C/c1ccc(-c2cc(Cl)ccc2Cl)o1	0.63µM*	u	0.71µM*	-66%	-23%	2%	u	-27%
COC(=O)Cc1c(C)c2ccc(OCC(C)=O)c(C)c2oc1=O	13%	-5%	-7.1%	-27%	-3%	24%	-4%	-17%
CCCCC(=O)N/N=C/c1c(O)n(CC)c(=S)n(CC)c1=O	-4%	u	17%	u	-10%	u	u	11%
CCO[C@H]1OC(C(=O)NCc2nc3ccccc3[nH]2)=C[C@@H](c2csc3ccccc23)[C@@H]1CCCO	x	x	x	0%	0%	0%	x	0%
COC(=O)c1c(NC(=O)CS(=O)(=O)c2ccc(C)cc2)sc2c1CCCC2	u	-17%[46.1 µM]	-7.7%	x	x	-7%	x	x
Cc1c(CN2CCCC(C(=O)Nc3cccc(-n4cccn4)c3)C2)cnn1C (centres undefined)	x	x	x	12%	0%	-9%	x	-9%
CC(/C=N/NC(=O)Cc1cccn1C)=C\c1ccco1	-9%	22%	-8.7%	13%	18%	16%	3%	-1%
COc1ccc(NC(=O)COC(=O)c2c(C)noc2C)c(OC)c1	-5%	-13%	3.5%	-1%	16%	15%	3%	-21%
CCOc1ccccc1N1CCN(c2nc(N)c(C#N)c(CC#N)c2C#N)CC1	u	-22%	-14%	u	5%	u	u	-15%
O=C(Cn1nnc(-c2ccccc2)n1)NCc1ccccc1	4%	1%	-0.9%	18%	0%	x	u	15%
COc1ccccc1CCNC1CCC(C(C)(C)C)CC1 (centres undefined)	-6%	u	1.8%	-20%	-3%	31%[activator]	u	21%
COc1ccc(OC)c(NC(=O)C2CC(=O)N(CCc3ccc(F)cc3)C2)c1 (centres undefined)	x	2%	x	x	x	9%	-15%[46.1 µM]	10%
COc1ccc(Nc2nnc(-c3ccccc3)c3ccccc23)cc1C(=O)N1CCCCC1	-10%	-13%[46.1 µM]	-4.7%	-33%	-5%	-30%	u	5%
CN1C(C(=O)NCc2ccc(OC(F)(F)F)cc2)CC2Cn3c(nc4ccccc43)C21 (centres undefined)	x	x	x	-33%	-4%	-15%	x	-8%
N#C/C(=C(/O)COC(=O)CCC1CCCCC1)c1nc2ccccc2[nH]1	u	u	3.1%	-2%	4%	u	u	0%
COCC(=O)Oc1c(S(=O)(=O)c2ccc(C)cc2)c(C)nn1C(C)(C)C	x	-2%[46.1 µM]	x	-4%	1%	-13%	6%[46.1 µM]	-2%
(list continues)
SMILES	Cruzain noTriton	LASV entry inh	Cruzain inh Det	NS1 inh	SARS PLP yeast	StopGo reporter	MARV entry inh	RE007 growth inh
COCCCNc1c2c(nc3nnnn13)CCCC2	x	-12%	x	x	4%	-4%	0%[46.1 µM]	5%
CCCOc1ccc(C2C(C(=O)c3ccc(C)o3)=C(O)C(=O)N2CCCn2ccnc2)cc1 (centres undefined)	x	6%	x	7%	x	-4%	2%	-12%
O=C(CN1C(=O)c2ccccc2S1(=O)=O)Nc1ccon1	x	2%	x	x	1%	-17%	-2%	8%
COc1ccc(-c2cc(OC)c3c(C)oc(C)c3c(=O)c2)cc1OC	u	u	-5.2%	-7%	-27%	-8%	-4%	-9%

Screens deposited in PubChem BioAssay by National Center for Advancing Translational Sciences (NCATS).
